Assay outcomes: PubChem BioAssay, National Center for Advancing Translational Sciences (NCATS)
NS1 function inh – inhibitors of influenza NS1 protein function; 0.4% of 270,000 active; Potency, µM (series often up to 46.1 µM), without a hit: at the top dose activity, positive = more growth; S. cerevisiae slowed by influenza A NS1, growth recovery by OD600; note: actives are rising curves; nearly all actives have a fitted effect of over 50% in size
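S. cerevisiae expressing influenza A NS1, grown in glucose, washed, then diluted 1:100 into pH 6.0 -URA galactose medium with 23 nl compound. Growth recovery read as OD600; NS1-free strain serves as control.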
LASV entry inh – blocks Lassa virus binding to or entry into cells | 1.2% of 300,000 active | AID 540256 | Potency, µM (titrated, usually from 37.9 µM), for inactives: at the highest dose activity change, negative = inhibition, usual class: inhibitors | Lassa virus pseudotype entry inhibition, cell reporter; control for the full effect not named in the record; active means well fitted inhibition curve with a large enough effect; inconclusive means small, poorly fitted or top-dose-only effect, or effect the other way; inactive means flat fitted curve, though single readings scatter; tested in HEK293 cells; note: % is set by controls: 0 for no effect and ±100 for the full control effect; nearly all actives have a fitted effect of over 50% in size; luciferase read-out
Marburg entry inh – inhibitors of Marburg virus binding or cell entry; Marburg virus pseudotyped entry inhibition, cell reporter; control for the full effect not named in the record; about a third of the inactives were read at about 46 µM; Potency, µM (series often up to 37.8 µM), for the others: at the highest dose activity change, negative = inhibition, usual class: inhibitors; 1.8% of 300,000 active; active = well fitted inhibition curve with a large enough effect; inconclusive = small, poorly fitted or top-dose-only effect, or effect the other way; inactive = flat fitted curve, though single readings scatter; tested in HEK293 cells; about a fifth of its hits are not listed in these tables; note: % is set by controls: 0 for no effect and ±100 for the full control effect; luciferase read-out
SARS PLP yeast – inhibitors of SARS-CoV papain-like protease in yeast | S. cerevisiae expressing SARS-CoV PLpro, growth rescue; control for the full effect not named in the record | Potency, µM (doses to about 32.9 µM), for inactives: at the highest dose activity, positive = growth rescue | 0.19% of 330,000 active; note: 0% is about no effect; nearly all actives have a fitted effect of over 55% in size; growth read by luminescence after 48 h
Cruzain inh Det – blocks cruzain activity in presence of Triton detergent; purified cruzain, Z-FR-AMC fluorescence, 0.01% Triton; 0.43% of 200,000 active; Potency, µM, for inactives: max response, negative = inhibition, usual class: inhibitors; P25779; active = well fitted curve in the direction sought with a large enough effect; inconclusive = small, poorly fitted or top-dose-only effect, or another doubt; inactive = no such curve, though single readings can be large; an effect the other way counts as inactive or inconclusive;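 note: plate controls were neutral wells for no effect and buffer without enzyme for full effect; nearly all actives have a fitted effect of over 40% in size; top concentration of the series not given in the record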
Target sequence (P25779 123-467 limits assumed): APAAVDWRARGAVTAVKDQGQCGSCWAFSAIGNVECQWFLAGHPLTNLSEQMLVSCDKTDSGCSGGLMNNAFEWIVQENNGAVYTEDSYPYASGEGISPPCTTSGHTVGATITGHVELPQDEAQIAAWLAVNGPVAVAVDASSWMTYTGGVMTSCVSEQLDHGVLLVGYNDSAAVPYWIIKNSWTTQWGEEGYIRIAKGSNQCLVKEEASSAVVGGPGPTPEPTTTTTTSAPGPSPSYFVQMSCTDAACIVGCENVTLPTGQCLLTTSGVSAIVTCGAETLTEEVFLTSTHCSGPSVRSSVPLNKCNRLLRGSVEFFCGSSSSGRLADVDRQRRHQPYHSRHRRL
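Read-out: AMC fluorescence (360 nm excitation, 450 nm emission), four reads over 2 min, first-to-third difference used. Conditions: cruzain 1.5 nM, Z-FR-AMC 2 uM, pH 5.5 acetate, 5 mM DTT, 0.01% Triton X-100.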
RE007 growth inh – less growth of the S. pombe RE007 Vpr strain | S. pombe RE007 Vpr strain, BacTiter-Glo ATP luminescence, 24 h; control for the full effect not named in the record | Potency, µM (top dose mostly 92.2 µM), for the others: at the top dose activity change, negative = less growth | 0.21% of 360,000 active; active = well fitted falling curve with a large enough effect; inconclusive = small, poorly fitted or top-dose-only effect; inactive = no such curve, though single readings can be large or run the other way;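 note: % is set by controls: 0 for no effect and ±100 for the full control effect; nearly all actives have a fitted effect of over 50% in size; the assay follows cell death caused by Vpr and the record does not say whether a fall means rescue or toxicity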
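Fission yeast RE007 carrying one integrated HIV-1 vpr copy, seeded at OD 0.01 in PMG+AL medium with 23 nL pinned compound. Grown 24 h at 30 degrees; viability read by BacTiter-Glo luminescence after 5 min.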
2A StopGo – lowers the luciferase signal of an FMDV 2A StopGo reporter. Potency, µM (top dose mostly 57.9 µM), for inactives: at the highest dose signal change, negative = less light. AID 1159524. human cells with a luciferase reporter of 2A StopGo recoding; control for the full effect not named in the record. 1.2% of 410,000 active; active = well fitted falling curve with a large enough effect; inconclusive = small, poorly fitted or top-dose-only effect; inactive = no such curve, though single readings can be large or run the other way; tested in HEK293T cells; note: % is set by controls: 0 for no effect and ±100 for the full control effect; nearly all actives have a fitted effect of over 45% in size; luciferase light after 4 h
Cruzain noTriton – inhibitors of Trypanosoma cruzi cruzain without detergent. Potency, µM, without a hit: max response, negative = inhibition, most hits filed as inhibitors. purified cruzain, Z-FR-AMC fluorescence, no detergent. AID 1476. 2.3% of 200,000 active; active = well fitted curve in the direction sought with a large enough effect; inconclusive = small, poorly fitted or top-dose-only effect, or another doubt; inactive = no such curve, though single readings can be large; an effect the other way counts as inactive or inconclusive;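 note: plate controls were enzyme without inhibitor for no effect and buffer without enzyme for full effect; nearly all actives have a fitted effect of over 40% in size; top concentration of the series not given in the record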
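Purified cruzain at 1.5 nM, pre-incubated 15 min with compound at room temperature in 100 mM sodium acetate pH 5.5, 5 mM DTT, 0.00005% Triton X-100. Reaction started with 2 uM Z-FR-AMC; AMC fluorescence increase over 60 s gives rate.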
* hit, by the source's call; u = inconclusive; x = no result given; & = joins results of further samples; [ ] = another dose, or the depositor's remark. Unless noted, calls come from the whole dose curve; as a rule, active means well fitted rising curve with a large enough effect; inconclusive means small, poorly fitted or top-dose-only effect; inactive means no such curve, though single readings can be large or run the other way. Potency is the fitted concentration of half-maximal effect.

SMILES	NS1 function inh	LASV entry inh	Marburg entry inh	SARS PLP yeast	Cruzain inh Det	RE007 growth inh	2A StopGo	Cruzain noTriton
CCOc1c(Cl)cc(CNc2ccc(N3CCCC3)cc2)cc1OC	10%	u	u	-1%	x	-17%	-16%	x
Cc1ccc(NC(=S)N/N=C/c2ccc(Cl)c([N+](=O)[O-])c2)cc1	2%	-15%	-24%	10%	-5.8%	0%	8%	-16%
Cc1cc([N+](=O)[O-])ccc1NC(=O)c1sc2ncn(CC(=O)N3CCOCC3)c(=O)c2c1C	0%	x	x	1%	x	-7%	-17%	x
COc1ccc(CCNC(=O)c2ccc3nc(CCc4ccccc4)oc3c2)cc1OC	x	5%[46.1 µM]	x	x	1.0%	x	-22%	-14%
CCC(c1nnnn1C1CCCC1)N1CCN(c2ccccc2)CC1 (stereo not drawn)	-11%	-1%	u	2%	0.1%	1%	u	2%
CCOC(=O)c1c(NC(=O)CSc2c[nH]c3ccccc23)sc2c1CCC2	29%	u	u	-2%	-5.2%	-3%	-6%	32µM*
COc1cccc(C(C(=O)NC2CCCC2)N(C(=O)c2ccco2)c2cccc(C(C)=O)c2)c1OC (stereo not drawn)	-6%	3%	u	11%	x	-6%	16%	x
CCCCCNC(=O)c1ccc(NS(=O)(=O)c2ccc3[nH]c(=O)[nH]c3c2)cc1	7%	-19%	16%	u	x	-1%	-9%	x
Cc1ccc(C)c(SCC(=O)Nc2cccc(S(=O)(=O)N3CCOCC3)c2)c1	x	-4%	3%	-2%	x	-9%	0%	x
O=C(Nc1ccc(Oc2cccc(C(F)(F)F)c2)nc1)c1ccco1	-8%	-20%	u	-4%	x	-12%	u	x

As entered above:
Reading of COc1cccc(C(C(=O)NC2CCCC2)N(C(=O)c2ccco2)c2cccc(C(C)=O)c2)c1OC (stereo not drawn) under RE007 growth inh: -6%
Reading of CCC(c1nnnn1C1CCCC1)N1CCN(c2ccccc2)CC1 (stereo not drawn) under LASV entry inh: -1%

Further structures follow:
SMILES	NS1 function inh	LASV entry inh	Marburg entry inh	SARS PLP yeast	Cruzain inh Det	RE007 growth inh	2A StopGo	Cruzain noTriton
Cc1nn2c3ccccc3nc2c2ccccc12	-86%	8%	14%	4%	-10%	-19%	20%	19%
CC(c1ccccc1)N1CCC(CNC(=S)Nc2cccc(Cl)c2)C1 (stereo not drawn)	x	u	u	-1%	x	-6%	11%	x
CC1CCCN(C(=O)COC(=O)c2ccc3[nH]c4c(c3c2)CCCC4)C1 (stereo not drawn)	x	u	u	-5%	x	-11%	39%[activator]	x
Cc1c(C#N)c(N=CN(C)C)c(C(=O)c2ccc(Br)cc2)n1-c1ccc(Cl)cc1	-2%	u	-11%	-7%	2.9%	-6%	-23%	12%
CC(=O)NCCc1nc2ccccc2n1CCc1ccccc1	7%	1%[46.1 µM]	u	0%	x	-7%	-6%	x
O=C1c2ccccc2C(=O)N1CCCc1nc(-c2cccnc2)no1	12%	13%	14%[46.1 µM]	-2%	3.0%	2%	-12%	-15%
COc1cc2c(cc1OC)CN(C(=O)CCc1c[nH]c3ccccc13)[C@H](C(=O)O)C2	5%	x	x	2%	x	-11%	-12%	x
O=C(C(O)c1ccccc1)N1N=C(c2ccccc2)CC1(O)C(F)(F)F (stereo not drawn)	4%	-1%[46.1 µM]	u	-5%	x	-3%	-16%	x
CC(=O)N1N=C(c2ccc(NS(C)(=O)=O)cc2)CC1c1ccc2nccnc2c1 (stereo not drawn)	0%	11%[46.1 µM]	u	0%	x	30%	-14%	x
O=C(CCCc1ccccc1)Nc1ccccc1[N+](=O)[O-]	-15%	u	6%	2%	x	-9%	52%[activator]	x
CS(=O)(=O)N(Cc1ccccc1)c1ccccc1C(=O)N1CCN(c2ccccc2)CC1	-8%	-3%	-15%	-8%	1.8%	-17%	u	18%
Cc1ccc(NC(=O)c2nc(S(C)(=O)=O)ncc2N(Cc2ccco2)Cc2ccco2)cc1	x	-19%[46.1 µM]	u	x	-3.6%	x	-18%	-16%
NC(=NCCc1ccccc1)NS(=O)(=O)c1ccccc1F	-1%	x	x	9%	x	11%	1%	x
CCCCc1ccc(Nc2ncccc2C#N)cc1	-66%	u	24%	-35%	-7.9%	-9%	24%	2%
Cc1ccsc1/C=N/n1c(-c2ccccc2)n[nH]c1=S	9%	2%	u	-15%	2.8%	7%	0%	9%
Nc1nonc1C(=O)NCCNCc1ccccc1OCc1ccccc1F	2%	2%	u	3%	2.1%	-2%	u	5%
NNC(=O)CN1C(c2ccc(Br)cc2)=Nc2ccc(Br)cc2C1c1ccccc1 (stereo not drawn)	22%	-3%	u	-22%	-20%	-7%	-19%	-10%
CCS(=O)(=O)C1=NSC2=NC(=O)/C(=C\c3ccc(OC(=O)c4ccco4)c(OC)c3)C(=N)N21	21%	x	x	21%	x	-15%	5%	x
COc1ccc(OC)c(NC(=O)c2cccc(NC(=O)c3ccccc3C(=O)O)c2)c1	-2%	1%[46.1 µM]	2%[46.1 µM]	1%	x	2%	-15%	x
CCOC(=O)Cc1cc(C(=O)Nc2ccc(Br)cc2)sc1-c1ccc(C)cc1	x	u	-19%[46.1 µM]	x	1.4%	x	-25%	-23%
CCCCCOC(=O)c1[nH]c2c(c1C)C(=O)CC(c1ccco1)C2 (stereo not drawn)	-29%	u	0.46µM*	-3%	-0.1%	4%	u	u
O=C1CN(C(=O)c2cccs2)c2ccccc2N1	-1%	4%	-2%	-4%	-1.2%	1%	6%	8%
COc1ccc(Nc2cc(NCCCO)c([N+](=O)[O-])c3nonc23)cc1	4%	x	-5%	2%	x	3%	-24%	x
O=C(c1ccco1)N(Cc1cccnc1)c1nc2c(F)cccc2s1	x	2%[46.1 µM]	x	x	-12%	x	0%	0%
CCc1ccc2nc(N(CCN(C)C)C(=O)/C=C/c3cccs3)sc2c1	7%	x	x	2%	x	25%	u	x
CSCCC(NC(=O)c1ccco1)C(=O)N1CCN(C(c2ccccc2)c2ccccc2)CC1 (stereo not drawn)	x	-25%	u	-5%	x	0%	u	x
CCCCn1c(-c2ccc(F)c(F)c2)nc2cc3[nH]c(=O)c(C(C)C)nc3cc21	20%	x	x	6%	x	0%	-27%	x
CC1=C(C(=O)Nc2ccccc2C)C(c2sccc2C)n2ncnc2N1 (stereo not drawn)	x	-3%[46.1 µM]	x	x	-0.8%	x	5%	13%
O=C(CSc1nnc(Cc2ccccc2)n1-c1cccc(Cl)c1)N1CCOCC1	-12%	-7%	u	1%	0.4%	21%	23%	25%
Cc1cc(C(=O)NC2CC(C)(C)Cc3c2cnn3-c2cccc(F)c2)nn1C (stereo not drawn)	-13%	15%	-20%	1%	x	5%	-22%	x
CC1=CCC2C(=O)N(c3nc4ccccc4n3C)C(=O)C2C1 (stereo not drawn)	4%	-6%	12%	x	5.2%	-2%	14%	3%
CCOC(=O)/C=C1\SCC(=O)N1CC(=O)Nc1ccc(C(C)C)cc1	0%	u	27%	10%	-1.9%	4%	19%	u
CC1(C(=O)N(CC(=O)NC2CCCC2)Cc2ccc(Cl)cc2)CC(=O)N=C2C=CC=CN21 (stereo not drawn)	4%	x	25%[46.1 µM]	1%	x	21%	-5%	x
O=C(O)CCc1ccc(-c2cccs2)n1Cc1ccco1	-50%	29%	-1%	-3%	2.3%	-8%	x	-6%
Cc1cc(C)c2c(n1)nn1c(N3CCN(c4ccccc4C)CC3)cc(C)nc21	-12%	-5%	-1%&-1%[46.1 µM]	x	x	-7%	u	x
CCOc1ccc(C2CC(c3ccc(F)cc3)n3ncnc3N2)cc1 (stereo not drawn)	-17%	-18%	12%	-15%	-1.3%	6%	7%	-2%
COC(=O)C1=C(C(=O)OC)[C@@H]2N(C)c3ccc(OC)cc3[C@@]23C[C@@H](C(=O)OC)N(C(=O)c2cc(C)oc2C)C3=N1	x	u	-25%[14.2 µM]	x	x	0%	-22%	x
O=C(NC(Cc1ccccc1)C(=O)O)/C(=C\c1ccc(Cl)cc1)NC(=O)c1ccco1 (stereo not drawn)	u	4%	7%	-7%	x	0%	-20%	x
Cc1c(NC(=O)/C(C#N)=C/c2cccs2)c(=O)n(-c2ccccc2)n1C	12%	-15%	-6%	3%	-2.3%	-1%	4%	-9%
COc1cc(CC(CC(=O)c2ccc3c(c2)OCO3)C(=O)O)cc(OC)c1OC (stereo not drawn)	x	-2%[46.1 µM]	-7%[46.1 µM]	x	x	9%	10%	x
CCOc1ccc(OCC)c(NC(=O)C(NS(=O)(=O)c2ccc3c(c2)oc(=O)n3C)C(C)C)c1 (stereo not drawn)	-1%	1%	-6%	7%	3.9%	-15%	-13%	21%
Cc1c(Cl)cccc1NC(=O)c1cc(-c2ccccc2O)n[nH]1	-6%	u	27%	0%	-8.4%	2%	12%	9%
Cc1ccc(S(=O)(=O)CCC(=O)OCC(=O)NC2CCS(=O)(=O)C2)cc1 (stereo not drawn)	x	14%	21%	2%	x	-14%	-17%	x
COc1cccc(-c2cc(C(F)(F)F)n3nc(C(=O)N4CCCCC4c4cccnc4)cc3n2)c1 (stereo not drawn)	x	x	u	-4%	x	-10%	u	x
CC(C)C(=O)NC(=S)Nc1nnn(C)n1	12%	-7%	1%	-6%	-0.9%	2%	-11%	11%
O=C(Nc1ccc(Cl)cc1)[C@@H]1[C@@H]2C(=O)N(c3ccc(Cl)cc3)C(=O)[C@@H]2[C@H]2C=CC=NN21	11%	-6%	-5%	1%	-5.5%	-10%	-25%	20µM*
Cn1ccnc1CN1CCCCC1C(=O)Nc1ccc(Oc2cccnc2)cc1 (stereo not drawn)	-1%	x	x	2%	x	-3%	-12%	x
CN1CCN(S(=O)(=O)c2ccc(NCc3ccc4c(c3)OCO4)nc2)CC1	3%	10%	-11%[46.1 µM]	0%	x	-14%	0%	x
CC1=Nc2nc(N3CCCCC3)c(C#N)c3c4c(nc(c23)N1)N(c1ccc(C(C)C)cc1)C(=O)C4	11µM*	6%&14%	-1%&-8%	-3%	-5.3%	-4%	-1%	-20%
